FGF22 binding: FGF22 (human) thermal shift binding. Q9HCT0. recombinant FGF22 thermal shift, SYPRO orange fluorescence; percent of sucrose octasulfate shift, DMSO zero. calls only at 9.99 µM. actives 1.5% (n = 340,000);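 active = melting point raised past a set limit in the mean and every replicate; inconclusive = no clear call; three in four hits are not shown here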
Target sequence (Q9HCT0 whole entry, looked up): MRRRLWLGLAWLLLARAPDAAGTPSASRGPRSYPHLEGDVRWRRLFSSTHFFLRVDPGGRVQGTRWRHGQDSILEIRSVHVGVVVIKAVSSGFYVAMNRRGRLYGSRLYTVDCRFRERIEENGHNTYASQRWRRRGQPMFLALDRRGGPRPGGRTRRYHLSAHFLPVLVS
RanGTP-Imp inh: inhibitors of RanGTP-importin-beta interaction, primary screen, biochemical, FRET, CFP-Ran, YFP-importin-beta, homogeneous; inhibition, % (test concentration not listed); cell-free CFP-Ran/YFP-importin-beta FRET ratio; actives 1.1% (n = 300,000);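 active = most replicates above 15%; inconclusive = exactly half above 15%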;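 also: 0% = DMSO wells and 100% = Ran loaded with GDP instead of GTP; wells of about 40 µL received 100 nL stock; the first replicate is given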
AF4-AF9 inh: MLL-AF4/AF9 protein interaction inhibition | P42568 | AlphaScreen, biotin-AF4 peptide binding to FLAG-AF9 | inhibition, % at 10 µM | actives 0.47% (n = 350,000);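 active = every replicate reaching a set inhibition limit, whatever the replicate mean, cut at about 25% in these data; inconclusive = mean inhibition reaches that limit but some replicates miss it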;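 also: 0% = plate neutral control median and 100% = total signal loss; the record names both 10 and 1 µM as test concentration; the first replicate is given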
Vif A3G: inhibitors of Vif binding to APOBEC3G peptide, primary screen, biochemical, TR-FRET, GST-Vif 1-94, biotin-A3G peptide, dose response retest (AID 1117319) | TR-FRET GST-Vif / biotin-A3G peptide binding; higher % means a stronger effect; test concentration not given here; strong numbers were not always called active | actives 0.57% (n = 260,000) | inhibition, %; hits with a dose series show IC50 in µM;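 active = above the screen mean plus three standard deviations and confirmed in dose response; inconclusive = results disagree or hit not tested in dose response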;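 also: Vif residues 1-94 fused to GST binding biotinylated APOBEC3G peptide 110-148; 0% = full assay without inhibitor and 100% = GST in place of GST-Vif; retest series ran down from 100 µM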
HNF4A DNA FP: change in binding of human HNF4 alpha to DNA; P41235; HNF4a-FITC DNA binding, fluorescence polarization, 1 h; activity change, % at 10 µM; actives 0.3% (n = 360,000); AID 1224865; in the data active = activity change above about 30%, passing the limit was not always enough;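 also: controls were the assay level and a saturating level of protein; the project sought stronger binding though the title names inhibitors; some compounds called inactive have numbers as strong as hits; positive values seem to mean higher polarization but the record does not say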
Target sequence (P41235 whole entry, looked up): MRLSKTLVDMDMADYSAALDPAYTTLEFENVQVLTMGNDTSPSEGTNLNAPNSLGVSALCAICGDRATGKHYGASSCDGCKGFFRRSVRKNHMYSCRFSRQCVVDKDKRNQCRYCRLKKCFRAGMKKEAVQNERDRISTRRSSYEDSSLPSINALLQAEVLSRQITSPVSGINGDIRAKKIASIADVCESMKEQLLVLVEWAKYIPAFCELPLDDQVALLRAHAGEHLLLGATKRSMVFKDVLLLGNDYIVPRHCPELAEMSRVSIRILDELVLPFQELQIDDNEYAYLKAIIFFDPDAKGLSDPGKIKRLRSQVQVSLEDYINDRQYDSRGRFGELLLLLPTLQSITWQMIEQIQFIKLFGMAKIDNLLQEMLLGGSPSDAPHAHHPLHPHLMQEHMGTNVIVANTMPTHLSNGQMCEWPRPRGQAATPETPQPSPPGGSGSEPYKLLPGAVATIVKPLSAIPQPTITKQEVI
E coli growth: E. coli growth inhibition. Escherichia coli growth, OD600, 23 h; stronger effect = lower value. OD600 absorbance (concentration not given with the values). actives 0.21% (n = 330,000). AID 1053175;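 active = OD600 absorbance below the run mean of sample wells minus 3.6 SD, in any replicate, cut at about 0.56 in these data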;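 also: stock transfer was 300 nL into about 60 µL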
UCH37 inh: human UCH37 deubiquitinating enzyme inhibition; purified proteasome/UCH37, Ub-AMC cleavage fluorescence; inhibition, % (no concentration beside the values); actives 0.33% (n = 330,000);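 active = mean of two replicates above 20%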;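 also: 0% = compound-free wells with enzyme and 100% = wells lacking proteasome; stock transfer was 100 nL into about 20 µL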
Target sequence (Q9Y5K5 whole entry, looked up): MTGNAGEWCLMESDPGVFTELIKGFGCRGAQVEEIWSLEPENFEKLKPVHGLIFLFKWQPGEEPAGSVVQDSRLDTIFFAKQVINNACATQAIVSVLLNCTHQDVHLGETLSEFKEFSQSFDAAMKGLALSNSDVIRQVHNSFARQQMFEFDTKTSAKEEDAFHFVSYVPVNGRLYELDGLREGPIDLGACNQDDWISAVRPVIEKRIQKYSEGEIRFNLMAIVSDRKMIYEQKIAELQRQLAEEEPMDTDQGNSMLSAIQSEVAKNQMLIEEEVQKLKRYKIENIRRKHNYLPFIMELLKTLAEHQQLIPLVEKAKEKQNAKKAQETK
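system = Proteasome-associated human UCH37 deubiquitinase | amount = 0.15 nM proteasome as dispensed | medium = pH 7.4 Tris-HCl (50 mM) with ovalbumin, ATP-MgCl2, DTT | incubation = 30 min preincubation with enzyme, 25 min cleavage at room temperature | detection = AMC fluorescence 355/460 nm | read-out basis = percent inhibition | controls = no-proteasome and no-compound wells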
Active calls of the source: *; i = inactive; ? = inconclusive; . = no result given; + = active, no number; & = joins results of further samples.

SMILES	FGF22 binding	RanGTP-Imp inh	AF4-AF9 inh	Vif A3G	HNF4A DNA FP	E coli growth	UCH37 inh
COc1cc(/C=C/C(=O)N2CCCc3ccccc32)cc(OC)c1OC	i	2.7	-4.4	-4%	-3.6	0.71	4.7
COc1ccc(NC(=O)CNC(=O)Cc2cccc3ccccc23)c(OC)c1	i	0.5	-51	0%	8.0	0.71	3.3
Cc1c(C)n(Cc2ccccc2)c2ccc(C(=O)OCCCN(C)C)cc12	i	4.4	21	-3%	2.9	0.7	3.5
COc1cccc(NC(=O)c2ccccc2Oc2ccccc2)c1	i	-0.9	-4.5	.	1.7	0.7	3.1
CCCCCC1=NN2C(=O)CC(=O)N=C2S1	i	-7.6	2.0	7%	6.8	0.71	2.6
CC(CNC(=O)c1cc(COc2c(F)cccc2F)on1)c1ccccc1 (stereo not given)	i	-1.4	-1.2	.	-1.4	0.71	3.0
CCC(=O)N1CCc2cc(S(=O)(=O)CCC(=O)Nc3ccc(OC)cc3)ccc21	i	0.0	-7.5	.	-1.5	0.71	3.1
COc1cccc(CNC(=O)CSc2nc(=O)n(Cc3ccncc3)c3c2CCC3)c1	i	-3.6	-1.0	1%	0.5	0.68	2.1
COc1ccc(CNC(=O)C2=CC(c3ccc(OC)c(OC)c3)=NS(=O)(=O)N2C)cc1	i	-2.7	5.2	.	3.9	0.71	1.1
CCCCC(=O)N(c1ccc(C(=O)O)cc1)c1nc(-c2ccc(Cl)cc2)c(CC)s1	i	0.0	-0.6	-2%	-1.1	0.67	1.4
CC(C)c1ccc(C2N3CC4([N+](=O)[O-])CN2CC([N+](=O)[O-])(C3)C4(C)C)cc1 (stereo not given)	i	8.3	-3.5	.	-0.4	0.76	3.3
CCN1CCN(C(=O)CN(Cc2ccccc2)S(C)(=O)=O)CC1	.	2.1	.	19%	-0.9	0.72	3.1
Cc1nc(SCc2ccccc2F)c2oc3ccccc3c2n1	i	4.9	-9.8	-3%	2.0	0.66	1.4
CC(NC(=S)NC1CCCCC1)C(c1ccccc1)N1CCOCC1 (stereo not given)	i	3.1	0.3	.	-4.3	0.63	1.1
Cc1ccc(-c2csc3ncn(CC(=O)O)c(=O)c23)cc1C	i	-1.8	-1.7	.	-3.8	0.7	4.8
CN(C)CCN(Cc1ccccc1)C(=O)[C@H](Cc1ccccc1)N1C(=O)c2ccccc2C1=O	i	2.1	-8.1	.	4.1	0.7	0.4
CCC(=O)c1ccc(OC(=O)c2cccs2)cc1	.	0.5	.	4%	1.4	0.64	2.3
CC1CCCC(NC(=O)C2CCN(S(=O)(=O)N3CCOCC3)CC2)C1C (stereo not given)	.	-3.2	.	-6%	2.9	0.7	3.8
C/C(=N\NC(=O)C1CC1)c1cccnc1	.	-1.1	.	0%	1.4	.	.
O=S(=O)(O)c1nc2ccccc2n1Cc1ccc(Cl)cc1	.	0.7	.	-4%	2.1	0.69	1.3

Shown with bars between the fields: entries from further up.
canonical_smiles | FGF22 binding | RanGTP-Imp inh | AF4-AF9 inh | Vif A3G | HNF4A DNA FP | E coli growth | UCH37 inh
CCN1CCN(C(=O)CN(Cc2ccccc2)S(C)(=O)=O)CC1 | . | 2.1 | . | 19% | -0.9 | 0.72 | 3.1
Cc1nc(SCc2ccccc2F)c2oc3ccccc3c2n1 | i | 4.9 | -9.8 | -3% | 2.0 | 0.66 | 1.4
CC(NC(=S)NC1CCCCC1)C(c1ccccc1)N1CCOCC1 (stereo not given) | i | 3.1 | 0.3 | . | -4.3 | 0.63 | 1.1
Cc1ccc(-c2csc3ncn(CC(=O)O)c(=O)c23)cc1C | i | -1.8 | -1.7 | . | -3.8 | 0.7 | 4.8
CN(C)CCN(Cc1ccccc1)C(=O)[C@H](Cc1ccccc1)N1C(=O)c2ccccc2C1=O | i | 2.1 | -8.1 | . | 4.1 | 0.7 | 0.4
CCC(=O)c1ccc(OC(=O)c2cccs2)cc1 | . | 0.5 | . | 4% | 1.4 | 0.64 | 2.3
CC1CCCC(NC(=O)C2CCN(S(=O)(=O)N3CCOCC3)CC2)C1C (stereo not given) | . | -3.2 | . | -6% | 2.9 | 0.7 | 3.8

Continuation:
SMILES	FGF22 binding	RanGTP-Imp inh	AF4-AF9 inh	Vif A3G	HNF4A DNA FP	E coli growth	UCH37 inh
COc1cc2cc(CN(CCN3CCCC3)C(=O)Nc3ccccc3Cl)c(=O)[nH]c2cc1OC	.	.	.	18%	15	0.72	-38
C/C(=N/NC(=O)c1ccco1)c1cccc(NC(=O)c2ccc(C)s2)c1	+	3.0	5.4	.	-0.8	.	.
CCC1(C)Cc2c(sc3nc(SC)n(Cc4ccccc4)c(=O)c23)CO1 (stereo not given)	.	-2.8	.	-1%	-3.5	0.72	0.2
CCOC(=O)c1cnc2c(c(C)nn2C)c1Oc1ccc(Cl)cc1	.	-2.9	.	-3%	-2.5	0.7	4.4
Cn1c(=O)c(C(=O)NC2CCCCCC2)c(O)c2ccccc21	i	4.8	2.6	.	-2.1	0.72	-4.4
Cc1cccc(N(CC(=O)N2CCOCC2)S(C)(=O)=O)c1C	.	-1.2	.	0%	2.5	0.74	4.9
O=C(NCc1ccco1)c1ccc2ccccc2c1	.	0.5	.	-3%	-2.8	0.64	-1.4
COc1ccccc1CC(=O)Nc1cc(C)ccn1	i	0.3	-5.2	1%	3.9	0.68	3.5
CC(=O)N1CCC(C(=O)Nc2ccc(S(=O)(=O)N3CCC(C)CC3)cc2)CC1	i	0.9	-3.4	.	-6.3	0.71	0.6
COc1ccc(C(O)c2nc(-c3ccccc3OC)cs2)cc1 (stereo not given)	i	.	0.3	.	-3.1	.	.
COc1cc(CNC(=O)c2cc(-c3ccc(OC)cc3C)n[nH]2)cc(OC)c1	i	.	0.2	.	-3.4	.	.
COc1ccc(CNS(=O)(=O)c2ccc(S(=O)(=O)NC3CC3)cc2)cc1	i	5.7	0.2	.	4.9	0.65	1.9
CCCCN(C)c1c(N2CCC(C(=O)OCC)CC2)c(=O)c1=O	i	2.7	-24	-4%	-2.8	0.73	5.4
C[C@@H]1CN([C@@H](C)CO)C(=O)CCCn2nncc2CO[C@H]1CN(C)C(=O)Nc1ccccc1F	i	.	-1.1&-2.7	2%	-0.7	.	.
CC(OC(=O)CN1C(=O)c2ccccc2C1=O)C(=O)NC1CCCC1 (stereo not given)	i	0.9	-2.9	.	1.0	0.7	0.4
NCCc1nnc(SCC(=O)Nc2cccc(Cl)c2)o1	i	-0.7	-0.4	.	1.5	0.68	2.6
Cc1cc([N+](=O)[O-])ccc1NC(=O)Cc1ccc(F)cc1	i	3.5	1.0	.	2.3	0.69	1.8
Cc1nc(-c2cccc(Cl)c2)n[nH]1	i	-2.7	0.4	-5%	-0.1	0.65	0.4
O=C(COC(=O)c1ccc(O)cc1)Nc1ccc2[nH]c(=O)[nH]c2c1	i	-0.8	-0.5	-3%	1.4	0.7	-1.3
O=C(NCc1ccc(F)cc1)c1cc(C2CCCCN2C(=O)c2ccc(Cl)cc2)on1 (stereo not given)	i	.	-2.8	.	-1.7	.	.
CCOc1cccc(C2NC(=S)NC(C)=C2C(=O)Nc2ccccc2)c1 (stereo not given)	.	-6.8	.	3%	0.5	0.68	2.5
COC(=O)c1scc(C)c1N/N=C(\C)c1ccc(F)cc1F	.	3.7	.	4%	-0.1	.	.
O=C(NNC(=O)c1ccccc1C(F)(F)F)c1csc(N2CCOCC2)n1	i	-0.3	0.9	.	5.2	0.73	1.7
Cc1cnc(C(=O)OCC(=O)Nc2cc(S(=O)(=O)N3CCOCC3)ccc2Cl)cn1	i	.	-1.0	-7%	0.8	0.69	2.0
COc1cc(C=C2CN(C)C(=O)C2=O)ccc1O	i	.	9.2	-6%	9.3	.	.
COc1ccc(CCN(C)C(=O)CNC(=O)c2ccccc2F)cc1OC	i	-1.1	-0.4	6%	-2.7	0.66	3.0
COc1ccccc1NS(=O)(=O)c1ccc(C(=O)NCC2(N(C)C)CCCCC2)cc1	i	.	9.1	.	-2.5	0.7	4.0
CCOc1ccc2nc(NCCO)[nH]c2c1	.	1.3	.	18%	0.8	0.75	4.9
COc1cccc(N2C(=O)[C@H]3C(C(=O)c4cnccn4)=NN[C@H]3C2=O)c1	i	-1.1	-3.5	-5%	-5.7	.	.
Cc1ccccc1-c1nnn(Cc2cccc(S(=O)(=O)N3CCOCC3)c2)n1	i	.	1.6	1%	2.2	0.71	4.1
CCCCCNC(=O)CCCCn1c(=O)[nH]c2cc(OCC)c(OCC)cc2c1=O	.	0.8	.	1%	-0.5	0.71	-3.4
O=C(c1cc(COc2ccc(F)cc2F)on1)N1CCSCC1	.	-0.6	-0.9	-10%	1.5	0.72	4.4
CCN1CCN(C(CNS(=O)(=O)c2ccc(C)cc2)c2cccnc2)CC1 (stereo not given)	i	5.9	0.2	.	2.6	0.65	2.1
CCOC(=O)[C@H]1[C@H]2COc3ccc(Cl)cc3[C@@H]2N2C(=O)CN(Cc3ccc(C)cc3)C(=O)[C@@]12C	i	.	2.7	.	0.4	.	3.1
O=C(c1sc2ccccc2c1Cl)N(Cc1ccccc1)C1CCS(=O)(=O)C1 (stereo not given)	.	?	.	5%	1.1	0.65	2.2
CCCn1c(N)c(N(CCOC)C(=O)Cc2ccc(S(=O)(=O)N3CCOCC3)s2)c(=O)[nH]c1=O	i	?	1.5	.	-1.6	.	.
CC(=O)Nc1ccc2c(c1)nc1n2CCN(C(C)c2ccccc2)C1 (stereo not given)	i	6.0	0.1	11%	4.5	0.69	-29
Oc1ccc(/C=N/Nc2ccc(C(F)(F)F)cn2)cc1O	.	-3.0	6.6	?	.	.	.
COC(=O)C(NC(=O)c1ccccc1)(Nc1nc(C)cs1)C(F)(F)F (stereo not given)	i	-3.8	4.2	17%	-0.1	0.63	1.7
Cc1ccc(-n2ncc3c2CC(C)(C)CC3NC(=O)Cc2c(C)noc2C)cc1 (stereo not given)	i	2.1	1.4	.	3.8	0.69	0.2
CC(C)C(NS(=O)(=O)/C=C/c1ccccc1)C(=O)NCc1ccc(F)cc1 (stereo not given)	i	1.1	0.6	-2%	2.1	0.72	0.7
CCCCNC(=O)C1(C)CCCCN1Cc1ccc2ccccc2c1 (stereo not given)	i	.	-4.8	.	2.0	.	.
[N-]=[N+]=NCCN1CCN(CCc2ccccc2)CCC1=O	i	-1.8	1.2	.	-2.8	0.72	0.5
O=C(CN1C(=O)NC2(CCc3ccccc32)C1=O)Nc1ccccc1C(F)(F)F (stereo not given)	i	.	-1.7	-9%	4.5	0.65	-0.5
O=C(Cc1ccccc1)NCC(=O)Nc1cccc(Br)c1	i	4.0	-0.9	-9%	-2.1	0.68	2.8
Cc1cccc(NC(=O)c2ccccc2OCC(=O)c2ccc(F)cc2)c1	i	?	4.1	-1%	-0.8	0.71	-11
Cc1ccccc1-n1c(Cc2cccs2)n[nH]c1=S	i	7.1	-4.6	-1%	-0.5	0.63	2.3
CCc1ccc(OCc2ccc(C(=O)NCc3ccccn3)o2)cc1	.	2.0	.	1%	-1.3	0.67	1.5
CC1=CN2C(=N)/C(=C\c3cn(CCCOc4ccccc4)c4ccccc34)C(=O)N=C2S1	.	-11	.	.	-1.4	0.76	-14
Oc1ccccc1C=NC(c1ccccc1)C(O)c1ccccc1 (stereo not given)	.	0.8	.	.	2.3	0.63	4.3
CCc1cccc(C)c1NC(=S)NCC1CCN(c2ccc(OC)cc2)C1 (stereo not given)	i	-1.8	?	32%	2.4	0.69	3.1
O=C(c1ccccc1)c1ccc(OCC(=O)N2CCOCC2)cc1	i	-2.6	-0.5	-4%	0.8	0.68	6.1
O=C(N/N=C/c1cccnc1)c1cccc(S(=O)(=O)N2CCCC2)c1	i	4.5	-2.3	2%	-1.7	.	.

Only part of the results is shown (hit frequency here may not be typical).
